Beta cell apopt: beta cell apoptosis inhibition | protection from apoptosis, % (test concentration not listed) | INS-1E cytokine-induced death, ATP luminescence, 48 h; percent of positive-control rescue, neutral wells zero | actives 0.8% (n = 300,000);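 active = all replicates at 75% or more, or half of them and the mean; inconclusive = half reach 75% but not the mean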;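 note: 0% = cytokine-treated negative control wells and 100% = positive control rescue; higher means more ATP so stronger rescue from cytokine killing; wells of about 40 µL received 100 nL stock; the first replicate is given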
A1 inh: inhibitors of the anti-apoptotic protein A1, read as caspase activation | AID 2462 | actives 0.066% (n = 330,000) | caspase activation, % (concentration not given with the values) | MEF A1-2A-BIM cells, Caspase-Glo 3/7 luminescence, 3 h; percent of clofoctol response, vehicle zero;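 active = over half of replicate activation scores above 10%, or exactly half above 10 with the replicate mean above 10; inconclusive = replicate mean below 10 yet half the replicates above 10; inactive = over half of replicates below 10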;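 note: wells of about 30 µL received 50 nL stock; many hits fall short of the cut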
UCH37 inh: blocks the human deubiquitinase UCH37; AID 588478; actives 0.33% (n = 330,000); purified proteasome/UCH37, Ub-AMC cleavage fluorescence; inhibition, % (test concentration not listed);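 active = mean of two replicates above 20%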;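 note: 0% = compound-free wells with enzyme and 100% = wells lacking proteasome; stock transfer was 100 nL into about 20 µL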
Target sequence (Q9Y5K5 whole entry, looked up): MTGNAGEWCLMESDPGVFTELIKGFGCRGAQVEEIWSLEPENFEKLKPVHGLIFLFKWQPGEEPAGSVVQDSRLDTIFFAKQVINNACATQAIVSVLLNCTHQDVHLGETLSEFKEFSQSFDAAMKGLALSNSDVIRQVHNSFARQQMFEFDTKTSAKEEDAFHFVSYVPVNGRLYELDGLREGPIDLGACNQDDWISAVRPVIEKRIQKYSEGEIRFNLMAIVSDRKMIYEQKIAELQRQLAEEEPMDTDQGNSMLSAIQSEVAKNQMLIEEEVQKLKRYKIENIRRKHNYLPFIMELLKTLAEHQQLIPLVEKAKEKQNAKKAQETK
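Material: Human UCH37 enzyme supplied as purified proteasome complex | Schedule: 30 min compound-proteasome preincubation then 25 min substrate reaction, room temperature | Detection: AMC fluorescence from Ub-AMC cleavage, excitation 355 nm, emission 460 nm | Benchmarks: Wells without proteasome as full block, compound-free enzyme plus substrate as uninhibited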
B2AR ag: agonists of human beta-2 adrenergic receptor inducing internalization. P07550. AID 504454. response, % (test concentration not listed). Am2.2-beta2AR cells, FAP receptor internalization, flow cytometry; reference of the scale not given here. actives 0.43% (n = 340,000);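 active = response above a set limit, near 3 SD of response in nonfluorescent compounds, cut at about 42% in these data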;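 note: stock transfer was 100 nL into about 11 µL; a reference agonist was the positive control; negative values mostly stem from fluorescent compounds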
Target sequence (P07550 whole entry, looked up): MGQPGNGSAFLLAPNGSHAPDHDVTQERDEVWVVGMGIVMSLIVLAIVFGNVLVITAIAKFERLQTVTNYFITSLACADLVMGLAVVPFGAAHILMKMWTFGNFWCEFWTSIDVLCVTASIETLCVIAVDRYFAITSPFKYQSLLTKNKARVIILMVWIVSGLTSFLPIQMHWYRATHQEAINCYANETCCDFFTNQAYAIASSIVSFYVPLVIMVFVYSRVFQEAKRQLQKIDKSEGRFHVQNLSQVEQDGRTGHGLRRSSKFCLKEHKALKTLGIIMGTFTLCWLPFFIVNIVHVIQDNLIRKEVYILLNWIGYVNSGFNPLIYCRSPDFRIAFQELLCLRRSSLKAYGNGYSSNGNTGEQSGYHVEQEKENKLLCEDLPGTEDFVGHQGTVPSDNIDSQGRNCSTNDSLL
RanGTP-Imp inh: disruptors of Ran-importin-beta complex formation – biochemical, FRET, CFP-Ran, YFP-importin-beta, homogeneous, primary screen | actives 1.1% (n = 300,000) | cell-free CFP-Ran/YFP-importin-beta FRET ratio | inhibition, % (test concentration not listed);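 active = most replicates above 15%; inconclusive = exactly half above 15%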;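 note: 0% = DMSO wells and 100% = Ran loaded with GDP instead of GTP; wells of about 40 µL received 100 nL stock; the first replicate is given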
LANA-H2A inh: blocks KSHV LANA binding to histone H2A/H2B; Q9QR71; cell-free LANA-H2A/H2B peptide, fluorescence polarization; inhibition, % (test concentration not listed); actives 0.6% (n = 320,000); in the data active = inhibition mostly above about 10%, no sharp cut-off; inactive = mostly below about 6.7%;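 note: stock transfer was 7.5 nL into about 10 µL; 0% = median of vehicle wells and 100% = median of positive control wells; one replicate is shown; the record names a cut of 25% in any replicate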
T cruzi repl: T. cruzi replication inhibition | T. cruzi beta-gal in NIH3T3, luminescence, 90 h | inhibition, % (no concentration beside the values) | actives 1.4% (n = 300,000) | AID 1885;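 active = mean inhibition across valid replicates above about 55%, limit read from the data; inconclusive = mean below that limit but half or more replicates reach it; inactive = mean below it, under half of replicates reach it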;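 note: signal also drops with host cell toxicity which is not excluded here; 0% = plate median of DMSO wells and 100% = zero luminescence signal; higher percent means less beta-gal luminescence so fewer parasites; stock transfer was 50 nL into about 50 µL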
Calb FLC: affects C. albicans growth with fluconazole; C. albicans CaCi-2 (fluconazole-resistant clinical isolate) + fluconazole, Alamar Blue growth, 48 h; growth inhibition, % (concentration not given with the values); actives 0.57% (n = 300,000);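 active = most replicates above 75%; inconclusive = exactly half above 75%; inactive = most below 75%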;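 note: all wells also contain fluconazole at 8 µg/ml as a sub-toxic cotreatment; 0% = median of DMSO wells and 100% = median of geldanamycin control wells; wells of about 8 µL received 7.5 nL stock; the first replicate is given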
The depositor's hits bear a star; i = inactive; ? = inconclusive; / = not tested or not shown.

SMILES	Beta cell apopt	A1 inh	UCH37 inh	B2AR ag	RanGTP-Imp inh	LANA-H2A inh	T cruzi repl	Calb FLC
CCC(C)NC(=O)CCc1c(C)nc2nc(-c3cc(OC)cc(OC)c3)nn2c1C (stereo not given)	2	0.2	3.2	-4	-1.5	-2.6	18	15
COc1ccc(/C=C2\SC(=O)N(CCC(=O)NCCCn3ccnc3)C2=O)cc1	2	-2.6	9.6	5	0.9	-0.7	-2	2
Cc1ccc2nc(C)c(C(=O)N/N=C/c3ccc(C(=O)O)cc3)cc2c1	-4	0.0	/	1	?	1.8	-9	18
COc1ccc(S(=O)(=O)NCc2ccccn2)cc1OC	-2	0.4	3.7	11	0.1	3.7	-8	13
CCn1nc(NC(=O)c2ccco2)c2cc3cc(C)ccc3nc21	-2	0.8	-74	2	54*	-1.4	9	-1
COc1cccc(NC(=S)N2CCCC2)c1	-12	0.0	0.4	-6	3.2	3.2	-14	7
COc1cc(OC)c(C2=NOC(C(=O)NCCc3ccccc3)C2)cc1Cl (stereo not given)	/	/	1.9	-12	-6.1	/	7	8
O=C1CCC(/C=C/c2ccccc2)=NN1Cc1ccc(Cl)c(Cl)c1	-17	-0.9	/	-7	1.4	-0.9	-2	-4
O=C(NS(=O)(=O)Oc1ccc(F)cc1F)OC[C@@H]1CCCN2CCCCC12 (stereo not given in full)	-2	0.5	-0.4	-1	2.7	-1.3	-2	-2
Cc1cnc([N+](=O)[O-])n1CCOC(=O)NC(=O)c1ccc(C(F)(F)F)cc1	-3	-0.3	0.6	4	-2.4	1.0	-14	1
CCN(CC)C(=O)CN(c1ccc(C)cc1)S(=O)(=O)c1ccc(SC)cc1	-2	0.7	-0.1	-24	-5.6	1.7	1	0
CC(=O)c1ccc(OCC(=O)NC2CCCN(Cc3ccccc3F)C2)cc1 (stereo not given)	/	/	1.6	-7	3.2	/	7	-2
Oc1ccc(-c2cnns2)c(O)c1	-2	-0.1	1.8	0	1.1	-1.9	-21	24
CCc1sc(C(=O)Nc2ccsc2C(=O)OC)cc1Br	-6	0.8	-5.3	4	0.6	4.3	-12	-23
CCC(=O)c1c(NC(C)C)cc(C)oc1=O	-6	0.2	0.4	1	6.6	3.0	1	-17
Cc1ccccc1Nc1cc2ccccc2c(=O)[nH]1	16	0.6	18	-4	17*	-5.1	19	-20
O=C(CN1CCc2ccccc21)NC(=O)NCc1ccccc1	-11	0.7	1.0	4	-1.5	0.5	-7	-8
CCOC(=O)CNc1nc(C#N)nc(N2CCOCC2)n1	-12	1.1	-1.3	2	1.4	-5.1	10	0
Cc1ccc(CN(Cc2ccco2)C(=S)Nc2ccccc2C)cc1	-10	-0.3	0.2	20	1.2	-4.7	-3	?
Cn1c(=O)oc2cc(S(=O)(=O)NCCC(=O)NCCc3ccc(Cl)cc3)ccc21	-2	2.1	-1.6	-4	1.1	1.5	36	7
CCNC(=O)NC(=O)COC(=O)c1cccc(NS(=O)(=O)/C=C/c2ccccc2)c1	1	1.6	0.5	-4	-4.7	0.8	0	0
CN(CC(=O)Nc1ccccc1C(F)(F)F)C(=O)c1cc(-c2cccs2)nn1-c1ccccc1	0	1.0	0.9	18	-2.8	-4.3	0	11
O=c1[nH]c(CN2CCOCC2)nc2scc(-c3ccccc3)c12	1	1.9	4.4	-4	0.1	1.0	-5	3
O=C(c1ccccc1)c1nn(-c2ccc(Cl)cc2)cc1C(=O)c1cc2ccccc2oc1=O	8	0.2	/	-7	-1.7	0.0	-9	5
COc1ccc(N2CC(C(=O)OCC(=O)Nc3cc(C)on3)CC2=O)cc1 (stereo not given)	-8	1.1	1.5	5	-2.4	2.0	-11	-1

Next part; the last 7 above are carried over.
SMILES	Beta cell apopt	A1 inh	UCH37 inh	B2AR ag	RanGTP-Imp inh	LANA-H2A inh	T cruzi repl	Calb FLC
Cc1ccc(CN(Cc2ccco2)C(=S)Nc2ccccc2C)cc1	-10	-0.3	0.2	20	1.2	-4.7	-3	?
Cn1c(=O)oc2cc(S(=O)(=O)NCCC(=O)NCCc3ccc(Cl)cc3)ccc21	-2	2.1	-1.6	-4	1.1	1.5	36	7
CCNC(=O)NC(=O)COC(=O)c1cccc(NS(=O)(=O)/C=C/c2ccccc2)c1	1	1.6	0.5	-4	-4.7	0.8	0	0
CN(CC(=O)Nc1ccccc1C(F)(F)F)C(=O)c1cc(-c2cccs2)nn1-c1ccccc1	0	1.0	0.9	18	-2.8	-4.3	0	11
O=c1[nH]c(CN2CCOCC2)nc2scc(-c3ccccc3)c12	1	1.9	4.4	-4	0.1	1.0	-5	3
O=C(c1ccccc1)c1nn(-c2ccc(Cl)cc2)cc1C(=O)c1cc2ccccc2oc1=O	8	0.2	/	-7	-1.7	0.0	-9	5
COc1ccc(N2CC(C(=O)OCC(=O)Nc3cc(C)on3)CC2=O)cc1 (stereo not given)	-8	1.1	1.5	5	-2.4	2.0	-11	-1
COc1ccccc1OCCSc1nc2ccccc2c(=O)[nH]1	-3	-0.6	-1.0	-2	2.5	0.8	17	11
CCc1ccccc1NC(=O)c1noc(C(C)C)c1[N+](=O)[O-]	-5	-0.4	5.6	-2	-1.9	-2.8	-23	-17
COc1ccc(/C=C2\SC(=S)N(CCC(=O)Nc3ccc(C(=O)O)cc3)C2=O)cc1OC	-6	-0.4	6.3	2	-3.0	-2.9	-2	/
Cc1ccc(NC(=O)[C@H](NC(=O)[C@@H]2Cc3ccccc3CN2)c2ccccc2)cc1	-1	0.4	2.4	1	5.2	0.0	8	8
O=C(Nc1ccc(F)cc1)c1cn(-c2ccccc2)nc1-c1ccncc1	-2	-0.1	4.9	-8	4.5	-3.2	20	-5
O=C(NCCO)c1cc2c([nH]c3ccccc32)c(-c2ccccc2)n1	5	-0.3	-71	2	5.8	3.1	3	-6
COC(=O)c1ccc(C#Cc2ccccc2)o1	-5	-0.9	-9.4	-10	-4.1	6.6	7	1
O=C(COc1ccccc1)Nc1cccc(-c2cn3cccnc3n2)c1	/	0.2	i	-12	3.2	0.2	-7	-2
N/C(CN1CCCC1=O)=N\O	0	0.5	/	7	-3.4	-3.4	-11	-7
CSc1sc(C(=O)O)c2c1C(=O)CC(C)(C)C2	-3	-0.1	3.6	-5	3.4	-4.3	6	-5
CC(C)=CC(=O)Nc1cccc(S(=O)(=O)NC2=NCCCCC2)c1	-1	2.3	-3.7	8	/	1.4	/	/
O=C(COc1ccc(/C=C\[N+](=O)[O-])cc1)N1CCOCC1	10	0.2	-0.6	0	3.7	1.0	-4	-13
COC(=O)C1=C(C)N(Cc2ccccc2)C(=NCc2ccccc2)N[C@H]1c1cccc(C(F)(F)F)c1	113*	-0.2	/	28	/	-1.1	/	/
CC(=O)N(c1ccc2oc(=O)sc2c1)S(=O)(=O)c1ccc(C)cc1	-5	0.1	2.8	9	0.2	-4.8	1	3
Cc1ccc(Nc2nnc(SCC(=O)Nc3cccnc3Cl)s2)cc1C	-3	-5.2	2.3	3	0.2	0.5	-3	1
CC1(OC(=O)C2CCCC2)C(=O)C=C2C=C(c3ccc(C#N)cc3)OC=C2C1=O (stereo not given)	2	0.1	/	18	-4.0	7.9	-11	-1
COCCCNC(=S)NNC(=S)NCCCOC	-2	-0.2	2.5	4	-0.8	-13	-9	-3
O=C(O)CCC(=O)c1ccc2ccc3cccc4ccc1c2c34	-7	-0.8	/	/	5.2	5.2	-7	23
CCC(C)NC(=S)N1CCN(C(c2ccccc2)c2ccccc2)CC1 (stereo not given)	3	0.1	3.1	2	4.6	6.5	17	-5
CC(C)N1CCN(Cc2ccncc2)CC1CCO (stereo not given)	-2	0.3	3.6	0	-1.9	-2.5	-15	2
O=C(Cn1c(C(=O)NCC2CCCO2)cc2sccc21)c1ccccc1 (stereo not given)	0	-0.4	4.7	-9	3.9	-2.8	/	-4
O=C(CC1C(=O)N(c2ccccc2)C(=S)N1c1ccccc1)c1ccccc1 (stereo not given)	-6	-0.9	-2.0	-1	-1.1	3.4	-8	-14
COc1cc2c(-c3cc(F)cc(F)c3)c(-c3ccsc3)oc(=O)c2cc1OC	0	-0.9	0.3	-4	/	-2.5	/	/
CCc1ccc(N(C(=O)c2snc(C(N)=O)c2N)C(C(=O)NCC2CCCO2)c2ccco2)cc1 (stereo not given)	-6	1.5	9.3	0	-0.9	-4.4	8	2
CCN(C(=O)COC(=O)c1ccco1)c1cccc2ccccc12	7	-0.6	1.8	2	/	1.1	/	/

Shown as a hit in RanGTP-Imp inh (from the list above):
| SMILES | UCH37 inh | B2AR ag | RanGTP-Imp inh | LANA-H2A inh |
| --- | --- | --- | --- | --- |
| CCn1nc(NC(=O)c2ccco2)c2cc3cc(C)ccc3nc21 | -74 | 2 | 54* | -1.4 |
| Cc1ccccc1Nc1cc2ccccc2c(=O)[nH]1 | 18 | -4 | 17* | -5.1 |

2 of the compounds above, with bars between the fields:
compound | Beta cell apopt | A1 inh | UCH37 inh | B2AR ag | RanGTP-Imp inh | LANA-H2A inh | T cruzi repl | Calb FLC
CCc1ccccc1NC(=O)c1noc(C(C)C)c1[N+](=O)[O-] | -5 | -0.4 | 5.6 | -2 | -1.9 | -2.8 | -23 | -17
COc1ccc(/C=C2\SC(=S)N(CCC(=O)Nc3ccc(C(=O)O)cc3)C2=O)cc1OC | -6 | -0.4 | 6.3 | 2 | -3.0 | -2.9 | -2 | /

New compounds follow
SMILES	Beta cell apopt	A1 inh	UCH37 inh	B2AR ag	RanGTP-Imp inh	LANA-H2A inh	T cruzi repl	Calb FLC
O=C(CSc1ccc(-c2ccccc2)nn1)NC1CCCCC1	-1	1.7	1.4	0	0.1	-2.6	-3	-5
CN(C(=O)CSc1nc2ccccc2c(=O)n1-c1ccc(F)cc1F)C1CCS(=O)(=O)C1 (stereo not given)	2	0.2	1.3	-4	/	-0.8	/	/
CN1C(=O)C(C)(C)c2cc(S(=O)(=O)N3CCCC(C(=O)NCc4ccc(Cl)cc4)C3)ccc21 (stereo not given)	6	0.6	5.2	-7	4.1	-1.9	-6	-1
Cc1nc2sccn2c(=O)c1S(=O)(=O)Nc1ccc(N2CCN(S(C)(=O)=O)CC2)cc1	1	-0.1	4.4	8	1.5	-4.3	-3	0
COc1ccc(/C(O)=C2/C(=O)C(=O)N(c3ncccn3)C2c2ccc(OC)cc2)cc1 (stereo not given)	-13	0.4	7.5	4	-4.5	1.7	-27	-17
Cc1cccc(NC(=O)Cn2nnc(-c3ccc(CN4CCCC4)cc3)n2)c1C	-3	0.4	-0.3	-5	-3.9	3.2	38	34
CN1CCC(=NNC(=O)C(=O)Nc2ccccc2F)CC1	-1	-0.6	1.3	5	0.4	-1.5	8	-18
COCCn1c(SCC(=O)OC(C)C)nnc1-c1ccccc1	-4	0.7	1.5	15	3.2	3.7	/	31
O=C(NCCc1nc2ccccc2[nH]1)c1ccc(F)cc1	4	0.0	-0.4	-11	-3.0	-1.2	-8	4
COc1ccc(-c2nnc3sc(C4CCCCC4)nn23)cc1OC	22	-0.3	4.1	4	?	-0.8	24	12
